VDR inhibitor – vitamin D3 receptor (human) inhibition | P11473 | VDR-SRC2-3 peptide fluorescence polarization, 2 h | Potency, µM, without a hit: max response, negative = inhibition, most hits filed as inhibitors | 400,000 tested, 0.93% active | AID 504847; active = well fitted inhibition curve with a large enough effect; inconclusive = small, poorly fitted or top-dose-only effect, or another doubt; inactive = no such curve, though single readings can be large or run the other way; also: series mostly up to about 120 µM
Target sequence (P11473 whole entry, looked up): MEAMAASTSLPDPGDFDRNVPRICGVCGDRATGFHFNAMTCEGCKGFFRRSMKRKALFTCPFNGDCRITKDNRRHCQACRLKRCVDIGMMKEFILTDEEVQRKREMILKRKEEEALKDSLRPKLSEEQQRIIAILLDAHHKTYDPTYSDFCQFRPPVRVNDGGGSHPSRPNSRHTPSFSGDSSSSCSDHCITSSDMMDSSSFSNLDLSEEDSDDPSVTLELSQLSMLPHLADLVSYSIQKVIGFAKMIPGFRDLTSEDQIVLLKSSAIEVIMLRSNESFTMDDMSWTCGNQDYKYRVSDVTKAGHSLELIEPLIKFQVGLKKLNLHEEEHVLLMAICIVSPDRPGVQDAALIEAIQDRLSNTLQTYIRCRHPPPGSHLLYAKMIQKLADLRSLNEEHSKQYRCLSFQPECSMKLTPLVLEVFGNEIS
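Fluorescence polarization assay of small-molecule disruption of VDR binding to coregulator peptide SRC2-3. Compounds and controls pin-transferred, then read after 2 h incubation at ambient room temperature.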
Active calls of the source: *; ? = inconclusive; & = joins results of further samples. % is scaled to controls: 0 for no effect and ±100 for the full control effect; potency is read from the fitted curve at half-maximal effect. Not all compounds are listed; rates above refer to the full screens.

SMILES	VDR inhibitor
CCOC(=O)c1ccc(N2CCN(c3cc(Cl)ccc3C)CC2)c(NC(=O)Nc2ccc(OCC)cc2)c1	0%
Cc1cc(-c2ccc(Br)cc2)n[nH]1	-14%
COc1ccc(C(=O)NCCSc2ccc(C)cc2)cc1	4%
O=C(NCC1CCCO1)c1ccc(CSCc2cccc(F)c2)o1 (centres undefined)	?
CCN(C(=O)C1CCCN(S(=O)(=O)c2c(C)noc2/C=C/N(C)C)C1)c1cccc(C)c1 (centres undefined)	-7%
Cc1nc(SCC(=O)c2cccc([N+](=O)[O-])c2)n[nH]1	25µM*
O=C(CSc1nc2ccccc2c(=O)n1Cc1ccccc1)NCc1ccco1	1%
Cc1cccc(C)c1NC(=O)COC(=O)c1c(C)nn(-c2ccccc2)c1C	19%
COC(=O)c1sccc1NC(=O)Nc1ccc(C)cc1	1%
O=C(N/N=C/c1cc([N+](=O)[O-])ccc1O)Nc1ccccc1	-12%
Cc1nnc(NC(=O)c2ccccc2F)s1	6%
COc1ccc(-c2noc(N3CCN(c4ccc(C)cc4)C(C)C3)n2)cc1OC (centres undefined)	8%
Cc1ccc(NC(=O)/C=C\C(=O)N(c2ccc(C(C)C)cc2)C(C(=O)NCc2ccco2)c2ccc(F)cc2)cc1 (centres undefined)	8%
COc1ccc2cc3cc(C(=O)N4CCN(C5CCCCC5)CC4)oc3nc2c1	-1%
Cc1cccc2cc(CN(Cc3ccc(F)cc3)C(=O)N3CCOCC3)c(=O)[nH]c12	-8%
CCCCN(CC)C(=O)C1CCCN(c2ncnc3c2nc2n3CCCCC2)C1 (centres undefined)	7%
Cc1ccc2oc(C(=O)Nc3ccc(S(=O)(=O)N4CCCCCC4)cc3)cc(=O)c2c1	-3%
O=C(c1ccc(OC2CCN(Cc3cccc(OCCO)c3)CC2)cc1)N1CCCC1	-9%
COc1ccccc1N1CCN(C2CCCN(C(=O)CCC(C)=O)C2)CC1 (centres undefined)	-4%
CC(C)(C)NC(=O)CN(Cc1ccc2c(c1)OCO2)C(=O)CNS(=O)(=O)c1ccc(F)cc1	-8%
C[C@@H](C(=O)Nc1cccc(S(=O)(=O)N2CCOCC2)c1)N1C(=O)C2CC=CCC2C1=O (some centres undefined)	2%
CC12c3ccccc3C(c3ccccc31)C1C(=O)N(Cc3cccnc3)C(=O)[C@H]12 (some centres undefined)	8%
Cc1cccc(-n2nc(CC#N)c(C#N)c2N)c1	-30%
O=C(NCc1ccco1)c1ccc2c(c1)C(=O)N(C1CCCCC1)C2=O	-8%
CCOC(=O)c1oc2ccccc2c1NC(=O)COc1ccc(F)cc1	-22%
Cc1cc(C)c(S(=O)(=O)N2CCN(C(=O)c3ccc4c(c3)OCO4)CC2)c(C)c1	-18%
O=C(Nc1ccccc1)N1CCC(c2ccccc2)C1 (centres undefined)	3%
COc1ccc(NC(=O)CN(C)C(=O)c2cc(-c3cccs3)nn2-c2ccccc2)cc1	-28%
COc1cc(NC(=O)C2CC2)c(C(=O)O)cc1OC	-12%
Cc1ccc(C)c(S(=O)(=O)N2CCN(C(=O)c3ccc4ccccc4n3)CC2)c1	-25%
O=C(COc1ccc(F)cc1)Nc1ccc(S(=O)(=O)Nc2ncccn2)cc1	-19%
O=C(NCCCN1CCN(c2cccc(Cl)c2)CC1)c1cccc(N2CCCC2=O)c1	10%
CN(Cc1ccccc1)C(=O)CN1C(=O)c2ccccc2C1=O	-4%
O=C(NCC(=O)N(c1cccc(F)c1)C(C(=O)NC1CCCC1)c1ccco1)c1ccco1 (centres undefined)	-1%
O=C(COC(=O)c1cccs1)c1ccc2ccccc2c1	-2%
O=C(CSc1ccc(-c2cccs2)nn1)Nc1cccc(F)c1	-2%
Cc1ccc(C(=O)Nc2cccc(S(=O)(=O)N3CCCCC3)c2)cc1S(=O)(=O)N1CCOCC1	-1%
COc1ccccc1CNS(=O)(=O)c1ccc2c(c1)CCCN2C(C)=O	-2%
N#Cc1cccc(NC(=O)N2CCCC3(CCN(S(=O)(=O)c4ccccc4)CC3)C2)c1	-4%
CCN(CC)c1ccc(C2N(C(=O)N3CCOCC3)CCN2S(=O)(=O)c2ccc(C)cc2)cc1 (centres undefined)	-9%
COc1cccc(N(CC(=O)N2CCCC2)S(C)(=O)=O)c1	-23%
CC(C)Oc1ccc(C2c3c(oc4ccccc4c3=O)C(=O)N2CCCN2CCOCC2)cc1 (centres undefined)	-2%
CCOc1ccc(C2CC(c3cccc(Cl)c3)n3nc(N)nc3N2)cc1 (centres undefined)	-9%
O=C(O)/C(=C\c1cccc(C(F)(F)F)c1)c1ccc(S(=O)(=O)N2CCCC2)s1	-15%
CCCOc1ccccc1OCC(=O)Nc1cccc(S(=O)(=O)NC2=NCCC2)c1	-7%
COc1ccccc1C(=O)CSc1n[nH]c(N)n1	-9%
COc1ccc(NC(=O)CC2C(=O)N(c3cccc(OC)c3)C(=O)N2C(C)C)cc1 (centres undefined)	-8%
O=C1NN(c2ccccc2)C(=O)C2C3C=CC(C4CC34)C12 (centres undefined)	7%
O=S(=O)(/N=C(/NC(=S)Nc1ccccc1)c1ccccc1)c1ccc(Cl)cc1	?
O=C(CCn1nc(-c2ccc(Cl)cc2)ccc1=O)N1CCN(c2ccccc2)CC1	-3%
Cc1ccc(Nc2nnc(SC(C)C(=O)NC3CC3)s2)cc1 (centres undefined)	-10%
O=C(CSc1nnnn1-c1cccc2ccccc12)NC(C(=O)O)(c1ccccc1)c1ccccc1	-11%
CCOC(=O)C(=O)/C(C#N)=C/Nc1ccccc1	-13%
Cc1cc(Cl)c(S(=O)(=O)N/N=C/c2ccc3c(c2)OCO3)c(Cl)c1	-26%
O=C(NCc1cccnc1)c1ccc(Cl)c(Cl)c1	-9%
CSc1ccccc1OCc1cc(C(=O)N(C)Cc2cc(C)[nH]n2)no1	1%
CSc1ccc(Cl)c(C(=O)OCC(=O)Nc2ccccc2OC(F)F)c1	0%
O=C(Nc1ccc(NC(=O)c2ccco2)cc1)c1ccco1	3%
C=CCN1C(=O)/C(=C/c2ccc(O)cc2)S/C1=N/c1nccs1	-4%
COc1ccccc1C(=O)Nc1ccnn1C1CCN(Cc2cnc(N(C)C)s2)CC1	-5%
(listing goes on)
SMILES	VDR inhibitor
CC(=O)NC12CC3CC(C1)CC(C(=O)N1CCN(S(=O)(=O)c4ccc([N+](=O)[O-])cc4)CC1)(C3)C2	-4%
Cc1cccc(N(CC(=O)N2CCOCC2)S(C)(=O)=O)c1	-11%
CC(=O)Nc1ccc(O)c(-c2nc3ccccc3s2)c1	-18%
CCS(=O)(=O)c1ccc2oc(Nc3cccc(OC)c3)nc2c1	2%
COc1ccc(S(=O)(=O)Nc2ccc(Oc3ccsc3C(=O)O)cc2)cc1	-16%
CCSc1nnc([C@@H]2CCCN2C(=O)OC(C)(C)C)o1	2%
CC(=O)N1CCC2(CCCN(Cc3ccc(C#N)cc3)C2)CC1	-12%
CN(C)C(CNC(=O)c1cc2ccccc2oc1=O)c1ccccc1 (centres undefined)	-16%
C=CCSc1nnc(NC(=O)CSc2nnc(C)s2)s1	-5%
COc1cc(/C=C2/CCCC(C(=O)C(F)(F)F)=C2O)ccc1O	-3%
COc1ccc(CN(C(=O)CO/N=C/c2ccccc2)c2ccccc2C(=O)O)cc1	2%
O=C(NCC1CC1)C1CCCN(S(=O)(=O)c2ccc(-n3cnnn3)cc2)C1 (centres undefined)	23%
Cc1ccc(-c2nc3ncccc3o2)cc1NC(=O)C(C)C	-7%
CCOC(=O)C1=C(CSc2nnnn2C)N(C)C(=O)NC1c1ccccc1 (centres undefined)	16%
Cc1ccc(N(CC(=O)Nc2cccc(Cl)c2)S(=O)(=O)c2cccs2)cc1	?
COc1ccc(/C=C/C(=O)Oc2ccc(/C=N\NC(=O)c3ccc(F)cc3)cc2)cc1	-12%
Cc1occc1C(=O)NNC(=S)NC(=O)COc1ccc(Cl)cc1Cl	?
CCC(C)(C)NCC(=O)Nc1ccc(OC(F)(F)F)cc1	-3%
CC(C)c1nc(SCC(=O)NC2CCCCC2)c2ccccc2n1	2%
CC(NC(=O)COc1ccc(Br)cc1)C1CCCO1 (centres undefined)	-7%
Cc1ccc(-n2cccn2)c([C@@H]2C[C@H]3CN(C)C(=O)[C@]34CCCN24)c1	?
Cc1ccc(NC(=O)CCCNC(=O)c2ccc(Cl)cc2)cc1S(=O)(=O)N1CCCCC1	-22%
CCCS(=O)(=O)N1CCCC(C(=O)NCCCOC(C)C)C1 (centres undefined)	24%
O=C(Cn1c(=O)n(-c2ccc(Cl)cc2)c(=O)c2c3c(sc21)CCC3)c1ccccc1	3%
CCOC(=O)C1CCCN(Cc2nc(N)nc(Nc3ccc(OC)cc3)n2)C1 (centres undefined)	-21%
CCN(CC)S(=O)(=O)c1ccc(NC(=O)COc2nc3ccccc3nc2N2CCOCC2)cc1	-5%
N#Cc1ccc(COc2cccnc2[N+](=O)[O-])cc1	0%
CCc1ccc(OCC(O)Cn2c(N3CCCCC3)nc3c2c(=O)[nH]c(=O)n3C)cc1 (centres undefined)	-7%
O=C(COc1ccccc1F)Nc1nnc(SCc2cc(=O)c3ccccc3[nH]2)s1	8%
COC(=O)c1ccc(/C=N/N2CCN(Cc3ccccc3Cl)CC2)cc1	-16%
CC1(C)C=Cc2c(ccc3c2OC[C@H](c2ccc(O)cc2O)C3)O1	3%
CCC(Sc1nc2ncccc2o1)C(=O)Nc1cccc(C)c1 (centres undefined)	11%
COC(=O)c1ccccc1N(C)S(=O)(=O)c1cc2c3c(c1)CCC(=O)N3CCC2	-3%
CCCn1nnnc1NCc1cc(Br)ccc1OC	12%
N#C/C(=C/c1ccc(Cl)cc1)NC(=O)c1ccccc1	11%
C[C@H](NC(=O)[C@@H]1CSC2c3ccccc3C(=O)N21)C(=O)NC1CCCCC1 (some centres undefined)	-2%
COc1ccc(-c2cc(-c3ccc(C)cc3)nc(SCc3nnc(-c4ccccc4)o3)c2C#N)cc1OC	-2%
O=C(NN1C(=O)C2C3C=CC(C3)C2C1=O)c1ccncc1 (centres undefined)	-5%
COC(=O)c1ccccc1NC(=O)CSc1nnc(C(C)NC(=O)c2ccc(Cl)cc2Cl)n1C (centres undefined)	-3%
CC[C@]12c3[nH]c4ccc(Cl)cc4c3CCN1C(=O)[C@@H](CC(=O)NCc1cccc(C(F)(F)F)c1)C[C@@H]2C(=O)N1CCN(C(=O)C2CC2)CC1	-27%
COc1cc(/C=C2\SC(=S)N(NS(=O)(=O)c3ccccc3)C2=O)ccc1O	-12%
O=C(Nc1ccc(Br)cc1)C1CCCN1S(=O)(=O)c1cccs1 (centres undefined)	-2%
COc1ccc(NC(=O)COC(=O)Cn2cnc3ccccc3c2=O)c(OC)c1	-11%
COc1ccc(NC(=O)CN2CCN(C(=O)C3CCCO3)CC2)c(OC)c1 (centres undefined)	7%
CSc1nc2ccc(S(=O)(=O)N3CCOCC3)cc2s1	1%
CCOCCCNC(=O)C1(O)c2ccccc2NC(=O)N1c1ccc(Cl)c(Cl)c1 (centres undefined)	1%
COc1ccc(-n2c(C)nc(=O)c(-c3ccccc3)c2C)cc1	-24%
CC(C)C(NC(=O)c1ccccc1NC(=O)c1ccccc1)C(=O)NCCCn1ccnc1 (centres undefined)	20%
Nc1c(C(=O)N/N=C/c2ccccc2Cl)oc2nc(-c3ccccc3)cc(-c3ccco3)c12	18%
COc1cc(CN2CCCCCC2)cc(OC)c1	-9%
O=C(c1ccc2oc(CCc3ccccc3)nc2c1)N1CCC(O)CC1	-7%
CCN1CCN(Cc2ccc(NC(=O)c3ccc(C)c(NC(=O)c4cccc(-c5cn[nH]c(=O)c5)c4)c3)cc2C(F)(F)F)CC1	-17%
Cc1ccc2oc(=O)c3cc(C(=O)N4CCN(c5ccccc5F)CC4)sc3c2c1	2%
Cc1ccc(OCC(=O)N/N=C/c2cccc3cccnc23)cc1	-20%
CC(=O)N[C@@H](Cc1c[nH]c2ccccc12)C(=O)NC1CCCc2ccccc21 (some centres undefined)	9%
COc1ccc(C(=O)Nc2ccc3c(c2)CCCN3C(=O)c2cccs2)c(OC)c1	-7%&-10%
COCCC1CCCCN1C(=O)c1cccc(OC2CCN(S(C)(=O)=O)CC2)c1 (centres undefined)	5%
O=C(COc1ccc(Br)cc1CO)Nc1ccc(F)cc1	7%
O=C(COC(=O)C1CCN(S(=O)(=O)c2cccs2)CC1)c1ccccc1	3%

Gathered by group, the entries above containing two or more sulfur atoms (14)
SMILES	VDR inhibitor
O=C(CSc1ccc(-c2cccs2)nn1)Nc1cccc(F)c1	-2%
Cc1ccc(C(=O)Nc2cccc(S(=O)(=O)N3CCCCC3)c2)cc1S(=O)(=O)N1CCOCC1	-1%
O=C(O)/C(=C\c1cccc(C(F)(F)F)c1)c1ccc(S(=O)(=O)N2CCCC2)s1	-15%
O=S(=O)(/N=C(/NC(=S)Nc1ccccc1)c1ccccc1)c1ccc(Cl)cc1	?
Cc1ccc(Nc2nnc(SC(C)C(=O)NC3CC3)s2)cc1 (centres undefined)	-10%
C=CCN1C(=O)/C(=C/c2ccc(O)cc2)S/C1=N/c1nccs1	-4%
COc1ccc(S(=O)(=O)Nc2ccc(Oc3ccsc3C(=O)O)cc2)cc1	-16%
C=CCSc1nnc(NC(=O)CSc2nnc(C)s2)s1	-5%
Cc1ccc(N(CC(=O)Nc2cccc(Cl)c2)S(=O)(=O)c2cccs2)cc1	?
O=C(COc1ccccc1F)Nc1nnc(SCc2cc(=O)c3ccccc3[nH]2)s1	8%
COc1cc(/C=C2\SC(=S)N(NS(=O)(=O)c3ccccc3)C2=O)ccc1O	-12%
O=C(Nc1ccc(Br)cc1)C1CCCN1S(=O)(=O)c1cccs1 (centres undefined)	-2%
CSc1nc2ccc(S(=O)(=O)N3CCOCC3)cc2s1	1%
O=C(COC(=O)C1CCN(S(=O)(=O)c2cccs2)CC1)c1ccccc1	3%

Screening results as filed in PubChem BioAssay.
